CSC inhib = cancer stem cell inhibition | cancer stem cell-like cells viability, luminescence | inhibition, % at 7.5 µM | actives 1.1% (n = 300,000);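 active = mean at 75% or more and at least half the replicates too; inconclusive = mean and replicates disagree; tested in HMLE shEcad cells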;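 note: 0% = median of negative and 100% = median of positive control wells; the first replicate is given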
MT1-MMP act inh = blocks activation of human MT1-MMP; actives 0.061% (n = 360,000); HT1080 RFP-PRO-GFP cells, GFP/RFP ratio fluorescence, overnight; percent of plate control window, DMSO zero; GFP/RFP ratio change, % at 20 µM; P50281;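 active = GFP/RFP ratio change of at least 30% with cell ATP level not reduced by more than half and red fluorescence within 50% of control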; note: strong numbers were not always called active
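Assay system: RFP-PRO-GFP reporter HT1080 cells; read-out basis: GFP/RFP fluorescence ratio; benchmarks: DMSO wells and RFP-L50D-GFP cells; doses: 20 µM single dose, 1% DMSO; schedule: overnight cell settling, then overnight compound exposure, 37 °C, 5% CO2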
Yeast UUG start = yeast start codon fidelity modulation. S. cerevisiae UUG-firefly luciferase reporter, luminescence/redox ratio. activity score, % at 18.7 µM. actives 0.13% (n = 350,000). AID 602363;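 active = replicate mean at a twofold rise or more, about +100% in these data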;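 note: firefly luciferase made from a UUG start codon reports start codon fidelity; reporter light over untreated wells divided by growth signal over untreated wells; some hits fall short of that in this replicate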
PABP FP inh = PABP-poly(A) binding inhibition | P11940 | PABP-poly(A) RNA binding, fluorescence polarization | inhibition, % at 35 µM | actives 1% (n = 290,000) | AID 2014;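 active = 50% or more with normal probe brightness, or confirmed in later tests; inconclusive = above 50% with abnormal brightness, or retests that disagree; inactive = below 50% or failed in later tests; about a fifth of its hits are not listed in these tables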;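 note: calls also rest on retests at 20 µM and on dose response follow-up; controls were probe without protein and protein plus probe with vehicle; some compounds called inactive have numbers as strong as hits; many hits fall short of the cut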
Target sequence (P11940 whole entry, looked up): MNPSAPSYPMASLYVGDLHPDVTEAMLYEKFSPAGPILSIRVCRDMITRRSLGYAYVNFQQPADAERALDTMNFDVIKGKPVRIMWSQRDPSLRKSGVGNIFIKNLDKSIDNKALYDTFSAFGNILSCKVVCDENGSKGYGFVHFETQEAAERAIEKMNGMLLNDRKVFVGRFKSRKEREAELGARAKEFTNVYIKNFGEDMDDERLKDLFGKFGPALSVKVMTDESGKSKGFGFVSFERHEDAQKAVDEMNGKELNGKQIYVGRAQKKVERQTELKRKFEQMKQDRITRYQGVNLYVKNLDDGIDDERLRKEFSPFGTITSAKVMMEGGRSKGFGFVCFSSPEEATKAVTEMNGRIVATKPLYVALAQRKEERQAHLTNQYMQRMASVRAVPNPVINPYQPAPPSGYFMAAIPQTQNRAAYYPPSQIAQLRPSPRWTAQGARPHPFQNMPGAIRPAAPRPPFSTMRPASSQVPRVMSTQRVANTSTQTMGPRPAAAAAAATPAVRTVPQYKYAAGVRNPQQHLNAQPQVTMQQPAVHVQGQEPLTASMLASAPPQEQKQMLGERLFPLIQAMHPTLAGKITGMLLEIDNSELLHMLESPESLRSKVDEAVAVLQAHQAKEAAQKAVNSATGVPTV
HIV Env fusion = inhibitors of HIV Env-mediated cell fusion; inhibition, % at 12.3 µM; AID 651610; actives 1.1% (n = 360,000); HeLa-JRFL Env/CEM21 cell fusion, luciferase;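 active = mean replicate inhibition score of at least 50 and every replicate individually at or above 50; inconclusive = only one of the two criteria met; inactive = mean below 50 and not all replicates reaching 50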;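 note: 0% = plate neutral controls and 100% = maraviroc near 300 nM; one replicate is shown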
eIF4H inh = inhibitors of RNA binding by human eIF4H | Q15056 | eIF4H fluorescence polarization binding assay | inhibition, % at 35 µM | actives 0.94% (n = 290,000) | AID 2012;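 active = 50% or more with normal probe brightness, or confirmed in later tests; inconclusive = above 50% with abnormal brightness, or retests that disagree; inactive = below 50% or failed in later tests; about a fifth of its hits are not listed in these tables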;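 note: calls also rest on retests at 20 µM and on dose response follow-up; 0% = protein and probe with vehicle and 100% = probe without protein; strong numbers were not always called active; many hits fall short of the cut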
Rce1 inh = blocks yeast Ras-converting enzyme; calls only; Q03530; actives 0.27% (n = 290,000); yeast membranes, quenched prenylated peptide cleavage fluorescence;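 active = fall in fluorescence gain of 50% or more versus controls, with final raw signal at or below 3038400; inconclusive = same 50% fall but final raw signal above 3038400; inactive = fall in fluorescence gain under 50%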;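 note: plate controls were neutral control wells for no effect and wells lacking membranes for full effect; tested at 10 µM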
eIF4H inh retest = recorded beside eIF4H inh, whose call it bears; inhibition, %; compound at 20 µM; confirmation average;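 mean of two retest wells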
PABP FP inh retest = recorded beside PABP FP inh, whose call it bears; inhibition, %; compound at 20 µM; confirmation repeats;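 mean of two retest wells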
MT1-MMP act inh RFP = further read-out of MT1-MMP act inh, marked with its call; RFP signal change, %; measured here: RFP expression control read;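 0 = vehicle wells; hits needed this value within 50% of zero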
An asterisk follows results filed as active; i = inactive; ? = inconclusive; . = not tested or not shown; & = joins results of further samples; [ ] = another dose, or the depositor's remark.

SMILES	CSC inhib	MT1-MMP act inh	MT1-MMP act inh RFP	Yeast UUG start	PABP FP inh	HIV Env fusion	eIF4H inh	Rce1 inh	others
C[C@H](NC(=O)c1nc[nH]c1C(=O)N[C@@H](Cc1ccccc1)C(=O)OC(C)(C)C)C(=O)OCc1ccccc1	-6	-4	-6	10	2	38	3	i
COc1ccccc1-n1c(SCC(=O)Nc2cc(C)on2)nc2c([nH]c3ccccc32)c1=O	-3	-2	-5	-27	18	-5	4	i
CC(NC(=O)C(C)N1c2cccc3cccc(c23)S1(=O)=O)c1ccccc1 (configuration not stated)	-4	0	0	17	0	18	-12	i
COc1ccc(-c2ccc(-c3noc(-c4ccccc4)n3)c(OC)n2)cc1	12	-8	0	-21	13	.	6	i
Cc1ccccc1Cn1c(=N)n(CC(=O)c2ccco2)c2ccccc21	4	-5	-3	-7	-4	.	-3	i
CC[C@@H](C)[C@H](CNC)NC[C@@H](Cc1cccc2ccccc12)NCCc1cccc(C(F)(F)F)c1	?	-2	-3	-15	-31	?	-9	i
O=C(/C=C/Nc1ccc(F)c(F)c1)c1ccc(Br)cc1	11	2	4	.	2	-43	-3	i
COCc1cc(=O)[nH]c(Cc2c(Cl)cccc2Cl)n1	.	2	5	-3	-2	7	1	i
C[C@H](CO)N1C[C@H](C)[C@H](CN(C)C(=O)Nc2cccc(Oc3ccccn3)c2)OCc2cnnn2CCCC1=O	.	-1	3	-24&-12	.	-11	.	.
C/C(=N\NC(=O)c1ccc(NS(=O)(=O)c2cccs2)cc1)c1ccc(C(C)(C)C)cc1	73	2	2	.	-2	-7	-6	i
CC1CN(CCn2cnc3c(N)ncnc32)CC(C)O1 (configuration not stated)	-13	0	0	.	-6	11	-6	i
COc1cccc(/C=C/C(=O)OCC(=O)Nc2cccc(S(=O)(=O)N3CCCCC3)c2)c1OC	-12	4	2	.	-4	15	-10	i
Cn1c(=O)n(Cc2ccco2)c(=N)c2c3c(sc21)CCC3	-11	-4	-2	-13	16	21	28	i
CCc1ccc(OCC(=O)Nc2ccc(CN3CCCCC3)cc2)cc1	.	2	3	-7	-1	5	0	i
COc1ccc(NC(=O)CN2C(=O)CSc3ccc(S(=O)(=O)N4CCC(C)CC4)cc32)cc1	-18	-1	-4	0	.	-12	.	i
Cc1ccc(C2(C)NC(=O)N(CC(=O)Nc3ccc(-c4nc5ccc(C)cc5s4)cc3)C2=O)cc1 (configuration not stated)	20	5	-11	-27	0	-81	-8	i
CS(=O)(=O)N1CCC(C(=O)Nc2ccccc2Sc2ccccc2)CC1	-8	1	1	-12	-4	-72	-16	i
Cc1cc(NC(=O)c2ccc(NC(=O)CC(C)C)cc2)no1	7	3	3	-12	3	-15	4	i
COc1ccc(-c2c(-c3ccc4c(c3)OCO4)noc2C)cn1	9	-8	0	-4	-7	-18	3	i
CC(=O)c1ccccc1NC(=O)CSc1nc2ccccc2c(=O)n1CCCN1CCOCC1	.	-6	-4	4	.	13	.	.
COc1ccc(OCC(=O)Nc2ccccc2Cl)cc1	6	4	4	.	8	-4	-4	i
O=C(Nc1cccnc1)c1cccc(S(=O)(=O)N2CCCC2)c1	-8	.	.	.	5	8	-6	i
CNC(=O)c1c(O)c2cccc3c2n(c1=O)CC3	-9	2	7	.	.	.	.	i
CC1=C([N+](=O)[O-])C(c2ccc3c(c2)OCO3)N(C)C(=O)N1C (configuration not stated)	-5	0	-2	-17	-3	-2	0	.
c1ccc(-c2cn3ccccc3n2)cc1	.	1	5	-33	.	-49	.	.
Cc1ccnc(NS(=O)(=O)c2ccc(NC(=O)Cc3ccc(Cl)cc3)cc2)n1	11	3	0	1	-4	20	-9	i
Cc1ccc2[nH]c(CCN(C)C)c(CN3CCOCC3)c2c1	-8	0	4	2	.	0	.	.
O=C(c1ccc2nccnc2c1)N1CCN(c2cccc(C(F)(F)F)c2)CC1	0	2	1	6	.	.	.	.
O=C(Cn1c(=O)n(CCC(=O)N2CCc3ccccc3C2)c(=O)c2ccccc21)NCC1CCCO1 (configuration not stated)	.	2	0	11	6	.	-6	i
O=C(CN1CCN(c2ccccn2)CC1)N1CCc2ccccc21	-5	2	2	0	0	-21	3	i

Three entries from above, ordered by heavy-atom count, falling.
SMILES	CSC inhib	MT1-MMP act inh	MT1-MMP act inh RFP	Yeast UUG start	PABP FP inh	HIV Env fusion	eIF4H inh	Rce1 inh	others
O=C(CN1CCN(c2ccccn2)CC1)N1CCc2ccccc21	-5	2	2	0	0	-21	3	i
O=C(Nc1cccnc1)c1cccc(S(=O)(=O)N2CCCC2)c1	-8	.	.	.	5	8	-6	i
CNC(=O)c1c(O)c2cccc3c2n(c1=O)CC3	-9	2	7	.	.	.	.	i

(continued)
SMILES	CSC inhib	MT1-MMP act inh	MT1-MMP act inh RFP	Yeast UUG start	PABP FP inh	HIV Env fusion	eIF4H inh	Rce1 inh	others
CCOC(=O)N1CCC(N2Cc3cccc(C(=O)Nc4cccc(F)c4)c3C2=O)CC1	-6	1	-3	.	16	7	-3	i
CCN1CCN(C(=O)/C=C/c2ccc(F)cc2)CC1	-4	-2	1	-19	.	-13	.	i
NC(=O)NC(=O)COC(=O)CCSc1ccccc1	7	-6	-2	-1	0	25	-12	i
COc1ccc(CC(=O)N/N=C/c2cccn2-c2ccc([N+](=O)[O-])cc2)cc1OC	-14	3	-14	.	3	8	10	i
NC(=O)C1CCN(c2ccc([N+](=O)[O-])cc2Cl)CC1	.	-4	0	.	0	-22	-4	i
CN(C)CCCN(Cc1cc2cc3c(cc2[nH]c1=O)OCCO3)C(=O)NC1CCCCC1	-6	-13	-1	-8	1	2	2	i
C=CC[C@H](CC(=O)N[C@H](CO)Cc1ccccc1)C(=O)N[C@H](COC(=O)[C@@H](CC=C)CC(=O)OC(C)(C)C)Cc1c[nH]c2ccccc12	0	2	-9	-7	.	.	.	.
COc1ccc(N2CCN(C(=O)CCNC(=O)c3ccccc3)CC2)cc1	-12	5	10	.	-11	7	-12	i
O=C1c2ccccc2C(O)N1c1ccccc1 (configuration not stated)	-8	-1	2	-16	10	-3	-6	i
CC(=O)OC[C@H]1O[C@@H](n2ncc(=O)[nH]c2=O)[C@H](OC(C)=O)[C@@H]1OC(C)=O	22	5	8	9	-12	.	-8	i
O=C(NC1CCCCC1)C1CCCN1C(=O)NCc1ccccc1 (configuration not stated)	13	-5	1	.	4	4	-1	i
C[C@H](CO)N1C[C@H](C)[C@@H](CN(C)S(=O)(=O)c2ccccc2)Oc2ccc(NC(=O)Nc3ccc4c(c3)OCO4)cc2C1=O	-9	2	-4	-4&6	.	-31[16.7 µM]	.	.
CCc1ccc(-n2cccc2/C=C2/C(=N)N3C(=NC2=O)SN=C3S(C)(=O)=O)cc1	70	-12	11	.	13	20	28	i
Cc1cc(C)n(-c2nc(NCC3CCCO3)c3c4c(sc3n2)COC(C)(C)C4)n1 (configuration not stated)	-11	.	.	.	-12	.	-9	i
CCN1C(=NCCc2cccnc2)N[C@@H](c2ccccc2)C(C(=O)OC)=C1C	3	.	.	7	.	.	.	i
COC(=O)CCC(=O)Nc1cc(S(=O)(=O)Nc2ccc(Cl)cc2)ccc1N1CCOCC1	-22	3	0	.	-13	1	3	i
O=C(NC1CCCCCCC1)c1ccccc1-c1ccccc1	19	3	-1	.	117	.	-4	i	eIF4H inh retest=-11;PABP FP inh retest=7
CCN(C[C@H]1N[C@@](Cc2ccccc2)(C(=O)OC)[C@H]2C(=O)N(Cc3ccccc3)C(=O)[C@@H]12)C(=O)COc1ccccc1	-7	3	-6	17	.	46	.	.
CC(NS(=O)(=O)c1ccc(OCC(=O)N2CCOCC2)c(Cl)c1)c1ccccc1 (configuration not stated)	-11	2	3	-13	-5	.	7	i
COc1ccc(Br)c(C(=O)NNC(=O)c2ccc(NS(=O)(=O)c3cccs3)cc2)c1	-8	2	-1	4	.	-4	.	i
CS(=O)(=O)c1nc(S(=O)(=O)c2ccc(Cl)cc2)c(N2CCOCC2)s1	-6	-2	-1	-13	10	-2	-7	i
CCNC(=O)COC(=O)CCC(=O)c1cccs1	5	3	7	.	10	-26	-4	i
COC(=O)c1ccc(-c2noc(CN3CCCC(CNC(C)=O)C3)n2)cc1 (configuration not stated)	-11	1	2	-18	-2	-95	-7	i
O=C(NCCCO)C12CC3CC(CC(C3)C1)C2	-5	-3	1	.	.	0	.	i
CCCOc1ccc(-c2c(C(=O)N/N=C(\C)c3cccs3)nnn2-c2nonc2N)cc1	-11	0	1	-17	0	6	-5	i
CC(=C/c1ccco1)/C=N/NC(=O)CSc1nnc(SCc2ccc(C)cc2)s1	46	0	1	.	-8	27	40	i
CN(CC(=O)N/N=C/c1ccc(F)cc1)S(=O)(=O)c1ccccc1	.	-1	6	8	.	-24	.	.
CCc1nc2ccccc2c(=O)n1NC(=O)c1c(O)c2ccccc2n(CC)c1=O	22	-16	-8	.	4	9	-8	i
C=CCNC(=S)N1CCN(C2CCCCC2)CC1	0	-4	0	.	-1	-5	-4	i
CC1CCN(CC(=O)Nc2ccccc2C#N)CC1	-15	2	1	4	-4	.	-1	i
Cc1ccc(N(C(=O)c2csnn2)C(C(=O)NC2CCCCC2)c2ccccn2)cc1 (configuration not stated)	-7	-1	4	0	-7	28	-10	i
Cc1cc(NCc2ccco2)nc2cc(O)ccc12	5	0	6	-26	-11	-12	2	i
O[C@@H]1CN(Cc2cccs2)[C@@H](c2ccc(Cl)cc2)C[C@H]1n1cc(C2CC2)nn1	.	0	-2	10	.	-24	.	.
CCN(CC)C(=O)c1ccc(/C=C/c2c[nH]c3ccccc23)[n+](C)c1	14	-94	5	.	11	-2	?	i
CC(C(=O)Nc1ccccc1C(F)(F)F)N1CCN(C)CC1 (configuration not stated)	-15	0	-2	-8	4	-28	7	i
COc1ccccc1NC(=O)c1ccc(CSc2ccccc2)o1	19	1	-3	4	5	13	1	i
COC(=O)c1[nH]c2ccccc2c1NS(=O)(=O)c1ccc(OC)cc1OC	-19	1	6	-11	16	-73	2	i
O=C(O)c1ccc(-n2c(/C=C/c3ccccc3)nc3ccccc3c2=O)cc1	2	6	2	-14	6	3	1	i
COc1ccc(C(=O)N/C(=C\c2ccccc2)C(=O)NCc2cccnc2)cc1	.	4	-5	-8	-5	43	-6	i
COc1ccc([C@H]2C[C@H](O)[C@@H](n3cc(COC(=O)c4ccccc4)nn3)CN2Cc2cccs2)cc1	.	5	4	-2	.	8	.	.
Cc1ccnc(NCn2nnc3ccccc32)c1	.	3	4	-1	1	.	14	i
O=C(N/N=C/c1ccc([N+](=O)[O-])o1)C(=O)Nc1ccc(C(=O)O)cc1	2	-2	1	-8	62*	-13	83*	i
CCN1CCN(CC(=O)Nc2ccc(N(C)C)cc2)CC1	-7	-4	1	-16	9	-2	5	i
CCCCCCCN(C(=O)CCl)c1ccccc1C	4	-6	-5	-19	-7	.	-9	i
CCN(CC(=O)N1CCCCCC1)S(=O)(=O)c1ccc(C)cc1	-15	-1	0	-22	1	8	-3	i
CCOC(=O)C(=O)Nc1ncc(Cl)s1	6	10	-1	-16	5	4	-10	i
CCn1ncc(Br)c1C(=O)Nc1ccccc1C(=O)OC	-9	4	2	-3	.	-355	.	.
COc1ccccc1[C@]1(C)ON(c2ccccc2C(F)(F)F)C1=O	48	1	0	-19	.	11	.	.
O=C(NCc1ccc2c(c1)OCO2)c1ccc(C2SCC(=O)N2Cc2ccco2)cc1 (configuration not stated)	9	9	-2	-15	9	11	32	i

Screening data as filed in PubChem.

This is a subset; count on the stated rates, not on these rows.
